Bioassay records: PubChem, National Center for Advancing Translational Sciences (NCATS)
Cruzain Triton: inhibitors of Trypanosoma cruzi cruzain with detergent; P25779; purified cruzain, Z-FR-AMC fluorescence, 0.01% Triton; Potency, µM, without a hit: max response, negative = inhibition, usual class: inhibitors; 0.43% of 200,000 active; AID 1478;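 also: plate controls were neutral wells for no effect and buffer without enzyme for full effect; nearly all actives have a fitted effect of over 40% in size; top concentration of the series not given in the record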
Target sequence (P25779 123-467 limits assumed): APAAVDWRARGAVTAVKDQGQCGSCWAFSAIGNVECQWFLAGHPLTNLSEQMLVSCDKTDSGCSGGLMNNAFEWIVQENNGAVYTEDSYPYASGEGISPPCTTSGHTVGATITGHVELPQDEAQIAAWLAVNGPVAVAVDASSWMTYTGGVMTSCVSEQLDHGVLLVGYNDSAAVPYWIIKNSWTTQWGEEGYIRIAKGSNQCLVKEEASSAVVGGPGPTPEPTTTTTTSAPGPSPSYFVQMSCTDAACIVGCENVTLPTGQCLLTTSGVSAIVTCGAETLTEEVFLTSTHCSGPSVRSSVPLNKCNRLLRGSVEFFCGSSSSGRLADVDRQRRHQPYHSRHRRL
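In this qHTS format, compounds are incubated with 1.5 nM cruzain for 15 min at room temperature before 2 uM Z-FR-AMC is added. Release of AMC is followed at 360/450 nm, and progress is taken as the 60 s fluorescence difference.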
StopGo reporter: lowers the luciferase signal of an FMDV 2A StopGo reporter; Potency, µM (highest dose often 57.9 µM), for the others: at the highest dose signal change, negative = less light; 1.2% of 410,000 active; human cells with a luciferase reporter of 2A StopGo recoding; control for the full effect not named in the record; active = well fitted falling curve with a large enough effect; inconclusive = small, poorly fitted or top-dose-only effect; inactive = no such curve, though single readings can be large or run the other way; tested in HEK293T cells; also: % is scaled to controls: 0 for no effect and ±100 for the full control effect; nearly all actives have a fitted effect of over 45% in size; luciferase light after 4 h
SARS PLpro yeast: blocks SARS-CoV papain-like protease in a yeast assay; S. cerevisiae expressing SARS-CoV PLpro, growth rescue; control for the full effect not named in the record; Potency, µM (highest dose often 32.9 µM), for the others: at the top dose activity, positive = growth rescue; 0.19% of 330,000 active; AID 485353; active means well fitted rising curve with a large enough effect; inconclusive means small, poorly fitted or top-dose-only effect; inactive means no such curve, though single readings can be large or run the other way; also: 0% is about no effect; nearly all actives have a fitted effect of over 55% in size; growth read by luminescence after 48 h
RE007 growth inh: less growth of the S. pombe RE007 Vpr strain | S. pombe RE007 Vpr strain, BacTiter-Glo ATP luminescence, 24 h; control for the full effect not named in the record | Potency, µM (titrated, usually from 92.2 µM), for the others: at the top dose activity change, negative = less growth | 0.21% of 360,000 active; active = well fitted falling curve with a large enough effect; inconclusive = small, poorly fitted or top-dose-only effect; inactive = no such curve, though single readings can be large or run the other way;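 also: % is scaled to controls: 0 for no effect and ±100 for the full control effect; nearly all actives have a fitted effect of over 50% in size; the assay follows cell death caused by Vpr and the record does not say whether a fall means rescue or toxicity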
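Fission yeast strain RE007, carrying one chromosomally integrated HIV-1 vpr copy, was seeded at OD 0.01 in PMG+AL medium with 23 nL pinned compound. After 24 h at 30 °C and 99% humidity, viability was read by BacTiter-Glo luminescence.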
NS1 inh: blocks influenza NS1 protein function; S. cerevisiae slowed by influenza A NS1, growth recovery by OD600; Potency, µM (top dose mostly 46.1 µM), for inactives: at the top dose activity, positive = more growth; 0.4% of 270,000 active; AID 2326; active means well fitted rising curve with a large enough effect; inconclusive means small, poorly fitted or top-dose-only effect; inactive means no such curve, though single readings can be large or run the other way; also: nearly all actives have a fitted effect of over 50% in size
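In this qHTS, NS1 from influenza A is expressed in budding yeast, where it slows growth. Cells are switched from glucose to 2% galactose medium (pH 6.0, -URA), treated with compound, and growth recovery is read at OD600.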
Cruzain inh noDet: inhibitors of Trypanosoma cruzi cruzain without detergent. P25779. purified cruzain, Z-FR-AMC fluorescence, no detergent. Potency, µM, inactives show max response, negative = inhibition, hits mostly inhibitors. 2.3% of 200,000 active. AID 1476;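 also: plate controls were enzyme without inhibitor for no effect and buffer without enzyme for full effect; nearly all actives have a fitted effect of over 40% in size; top concentration of the series not given in the record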
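Detergent-free condition (0.00005% Triton X-100) in acetate buffer pH 5.5 with DTT. 1.5 nM enzyme and compound were pre-mixed 15 min, then 2 uM Z-FR-AMC substrate added; reaction progress from fluorescence change between first and third reads (60 s).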
Marburg entry inh: Marburg virus entry inhibition | Marburg virus pseudotyped entry inhibition, cell reporter; control for the full effect not named in the record; about a third of the inactives were read at about 46 µM | Potency, µM (doses to about 37.8 µM), inactives show at the highest dose activity change, negative = inhibition, most hits filed as inhibitors | AID 540276 | 1.8% of 300,000 active; active = well fitted inhibition curve with a large enough effect; inconclusive = small, poorly fitted or top-dose-only effect, or effect the other way; inactive = flat fitted curve, though single readings scatter; tested in HEK293 cells; about a fifth of its hits are not listed in these tables; also: % is scaled to controls: 0 for no effect and ±100 for the full control effect; luciferase read-out
Lassa entry inh: blocks Lassa virus binding to or entry into cells; Lassa virus pseudotype entry inhibition, cell reporter; control for the full effect not named in the record; Potency, µM (series often up to 37.9 µM), for the others: top-dose activity change, negative = inhibition, hits mostly inhibitors; 1.2% of 300,000 active; active means well fitted inhibition curve with a large enough effect; inconclusive means small, poorly fitted or top-dose-only effect, or effect the other way; inactive means flat fitted curve, though single readings scatter; tested in HEK293 cells; also: % is scaled to controls: 0 for no effect and ±100 for the full control effect; nearly all actives have a fitted effect of over 50% in size; luciferase read-out
Active calls of the source: *; ? = inconclusive; . = no result given; & = joins results of further samples; [ ] = another dose, or the depositor's remark. Unless noted, calls follow the shape of the dose curve; as a rule, active = well fitted curve in the direction sought with a large enough effect; inconclusive = small, poorly fitted or top-dose-only effect, or another doubt; inactive = no such curve, though single readings can be large; an effect the other way counts as inactive or inconclusive. Potency is read from the fitted curve at half-maximal effect.

smiles	Cruzain Triton	StopGo reporter	SARS PLpro yeast	RE007 growth inh	NS1 inh	Cruzain inh noDet	Marburg entry inh	Lassa entry inh
Cc1cccn2c(=O)c(C=NCc3ccccc3)c(NCCO)nc12	-7.0%	.	1%	4%	-11%	-7%	-17%	10%
CC1=C(C(=O)Nc2cccnc2)C(c2ccc(F)cc2)n2nc(SCc3ccccc3F)nc2N1 (centres undefined)	-0.3%	8%	.	.	.	9%	?	9%[46.1 µM]
Cc1cc(=O)oc2c(C)cc(C(C)(C)C)cc12	.	-6%	.	-1%	.	.	5%[46.1 µM]	-23%[46.1 µM]
O=C(CCNS(=O)(=O)c1ccccc1)NNC(=O)c1csc(N2CCOCC2)n1	.	3%	4%	-5%	.	.	3%	15%
CCn1c(CN2CCN(Cc3ccc(C)cc3)C(CCO)C2)nc2ccccc21 (centres undefined)	.	-4%	-1%	-1%	3%	.	?	14%[46.1 µM]
Cc1ccc2c(C)nc(N/C(N)=N/S(=O)(=O)c3ccccc3)nc2c1	.	-4%	-1%	-17%	7%	.	1%&1%	7%
Cc1ccc(-n2c(=O)[nH]c3ccc(Br)cc3c2=O)cc1	-1.1%	-5%	.	.	.	-22%	.	6%[46.1 µM]
COc1cc2c(cc1OC)CN(C(=O)c1ccc(OC)c(S(=O)(=O)N3CCCC3)c1)CC2	.	21%	0%	3%	.	.	14%	-2%
CC(C)OC(=O)CSc1nnc(-c2cnccn2)n1Cc1ccco1	3.2%	-15%	.	-12%	-9%	-7%	2%	21%
O=C1CCc2cc(S(=O)(=O)N3CCC(C(=O)NC4CCCC4)CC3)ccc2N1	3.4%	-26%	0%	1%	-2%	-1%	.	.
COc1ccc(CN2CCC(=O)N([C@H](CO)CC(C)C)CC2)cc1	.	0%	10%	-22%	-5%	.	.	.
COc1ccc(CCN2CC(C(=O)Nc3cccc(C(C)=O)c3)CC2=O)cc1OC (centres undefined)	.	-3%	2%	10%	.	.	11%[46.1 µM]	23%[46.1 µM]
NC(=O)C1(Nc2ccccc2)CCCC1	.	-11%	.	0%	.	.	7%	9%
Cc1ccc(NC(=O)CN2C(=O)CSc3ccc(S(=O)(=O)N(C)C)cc32)cc1C	0.6%	4%	.	.	.	-24%	.	19%[46.1 µM]
O=C(Nc1ccc(C(=O)N2CCCCC2)cc1)c1ccccc1Br	.	6%	.	-3%	.	.	3%[46.1 µM]	-22%[46.1 µM]
Cc1ccc(SCC(=O)O/N=C(\N)c2ccc([N+](=O)[O-])cc2)cc1	-3.5%	-7%	-5%	-15%	-15%	-24%	-2%	-6%
COC(=O)CNC(c1ccccc1)c1cc(Br)ccc1NC(=O)CCN1CCOCC1 (centres undefined)	-1.2%	-1%	-108%	5%	-7%	-4%	0%	.
CC(=O)Nc1ccc2c(c1)OCCO2	4.3%	2%	-5%	1%	-22%	-4%	6%	4%
CC(C)(C)c1[nH]nc2c1C(c1ccsc1)C(C#N)=C(N)O2 (centres undefined)	.	?	1%	4%	4%	.	.	.
COc1cccc(NC(=S)N/N=C2\CC(C)(C)Oc3ccc(O)cc32)c1	-11%	?	?	2%	26%	-1%	.	.
COc1ccc(NC(=O)Cn2c(=O)c3cc(Cl)ccc3n3nncc23)cc1	1.6%	0%	.	.	.	-15%	16%[46.1 µM]	3%[46.1 µM]
CC(C)CCNC(=O)CN1C(=O)CSc2ccc(S(=O)(=O)N3CCC(C)CC3)cc21	0.7%	-13%	.	.	.	9%	.	2%[46.1 µM]
COc1ccc2nc(SCC(=O)NCc3ccc(OC)c(OC)c3)[nH]c2c1	.	-8%	0%	-17%	-2%	.	14%[46.1 µM]	?
CCn1nnnc1SCC(=O)NCc1ccc2c(c1)OCO2	-1.2%	21%	3%	-5%	6%	-3%	12%	10%
CC(=O)n1cc([C@@H]2C=C(C(=O)Nc3ccccc3)O[C@H](OCCCCO)C2)c2ccccc21	.	-10%	0%	7%	11%	.	.	.
CC1=C(c2ccc(C)c(C)c2)S(=O)(=O)N=C1N1CCC(C(=O)N2CCC(C(N)=O)CC2)CC1	-3.4%	-11%	.	.	.	?	.	15%[46.1 µM]
O=C(Nc1cccs1)Nc1c(F)c(F)c(F)c(F)c1F	-6.8%	20%	9%	5%	-31%	-12%	-23%	?
Cc1cc(C)nc(Nc2ccccc2Br)n1	-3.0%	5%	-6%	7%	-17%	5%	23%	13%
COc1ccccc1CNC(=O)COC(=O)[C@H](Cc1c[nH]c2ccccc12)NC(=O)c1cccs1	-17%	14%	13%	7%	-6%	-25%	8%	8%
COC(=O)Cn1ccc(N(C)C)c(C#N)c1=O	6.3%	.	3%	15%	-7%	2%	-14%	10%
COC(=O)c1ccc(NC(=O)COc2cccc(-n3cnnn3)c2)cc1	.	-12%	-3%	-2%	-6%	.	.	.
Cc1cccc(-c2nc(CS(=O)CC(=O)NCc3ccco3)c(C)o2)c1 (centres undefined)	.	18%	0%	1%	9%	.	-11%[46.1 µM]	-1%[46.1 µM]
CC(C)c1nnc(NC(=O)CSc2nnc(NC(=O)c3c(F)cccc3F)s2)s1	.	59%[activator]	0%	8%	12%	.	-1%	12%
CCOc1cc(C(=O)N(C)Cc2cc3ccccc3[nH]c2=O)cc(OCC)c1OCC	-3.3%	-6%	-5%	14%	-4%	-6%	-6%	14%
O=C(NCc1ccccc1)C(=O)NCC1OCCN1C(=O)c1ccc(Cl)cc1 (centres undefined)	.	14%	3%	?	.	.	8%[46.1 µM]	-12%
O=C(NCC(c1ccco1)N1CCCC1)c1cccc(NS(=O)(=O)c2ccc(Br)cc2)c1 (centres undefined)	.	-19%	3%	-8%	.	.	-17%	4%
CCCc1[nH]nc2c1C(c1cc(OC)cc(OC)c1)C(C#N)=C(N)O2 (centres undefined)	-3.8%	-6%	1%	-6%	0%	-3%	-12%	5%
CCc1ccc(NC(=O)c2sc3ncnc(N(C)C4CCCCC4)c3c2C)cc1	-4.6%	-15%	.	.	.	-1%	.	3%[46.1 µM]
CCn1cc(C(=O)NCc2ccccc2OC)c(=O)c2cc(S(=O)(=O)N3CCCCC3)ccc21	-6.5%	-26%	.	.	.	?	?	-36%[46.1 µM]
CN(Cc1cn(C)nc1-c1ccc(Oc2ccccc2)cc1)C1CCOC1 (centres undefined)	.	-19%	-1%	-13%	-1%	.	.	.
COCCOC(=O)c1c(-c2ccccc2)c(-c2ccccc2)nn(C)c1=O	-1.1%	0%	.	.	.	11%	-1%[46.1 µM]	-15%[46.1 µM]
CC(C)CN1CCC(Oc2cccc(C(=O)NCCc3ccccc3)c2)CC1	.	30%	3%	2%	7%	.	-14%	26%
Cc1ccc(CN2CCN(Cc3ccco3)CC2)cc1	.	-5%	2%	1%	10%	.	.	.
CC1=C/C(=C\c2ccc(Br)o2)C(=O)O1	-0.6%	-11%	3%	12%	4%	-2%	-6%	-1%
CCN(Cc1ccccc1)C(=O)CN1C(=O)NC(CC)(c2ccc(F)cc2)C1=O (centres undefined)	.	-14%	3%	-3%	7%	.	-13%[46.1 µM]	-26%
CCOC(=O)C1CCN(C(=O)CS(=O)(=O)Cc2nc(-c3ccccc3Cl)oc2C)CC1	.	?	0%	6%	1%	.	.	.
O=C(CSc1nc2cc(S(=O)(=O)N3CCOCC3)ccc2o1)NC1CCCc2ccccc21 (centres undefined)	-3.0%	-14%	-2%	0%	-68%	25µM*	?	16%
COc1ccc(C(=O)OCC(=O)NCc2ccco2)cc1S(=O)(=O)N1CCN(c2cccc(Cl)c2)CC1	0.2%	?	6%	5%	7%	0%	?	7%
Cc1cccn2c(=O)c3cc(C#N)c(=O)n(-c4c(C)n(C)n(-c5ccccc5)c4=O)c3nc12	-1.3%	-10%	0%	-19%	8%	-8%	-5%	1%
CCN(Cc1nc(-c2ccc(OC)cc2)no1)C(=O)c1ccc2c(c1)OCO2	.	-24%	-2%	48%	-27%	.	?	?

(continued)
smiles	Cruzain Triton	StopGo reporter	SARS PLpro yeast	RE007 growth inh	NS1 inh	Cruzain inh noDet	Marburg entry inh	Lassa entry inh
N=c1c2c(n(Cc3ccc(Cl)cc3Cl)c3c1CCC3)CCCC2	-1.3%	-1%	-3%	-10%	-4%	-10%	?	4µM*
COc1ccc(C(=O)COC(=O)C(Cc2c[nH]c3ccccc23)NC(=O)c2ccc(C(C)(C)C)cc2)cc1 (centres undefined)	-0.7%	-20%	.	.	.	13µM*	.	1.3µM*
COc1nc(-c2ccc(Cl)cc2)ccc1-c1noc(-c2cccs2)n1	3.9%	9%	7%	7%	?	?	?	-2%
COc1ccc(CN(C(=O)c2cccs2)C(C(=O)NC2CCCCC2)c2ccc3ncccc3c2)cc1 (centres undefined)	-2.5%	-13%	-23%	-15%	-30%	16%	2%	-3%
O=C(CSc1nc2ccccc2n1Cc1ccccc1)N/N=C/c1ccco1	-4.7%	-16%	-34%	6%	-15%	-9%	?	?
Cc1noc(C)c1COc1ccc(CC(=O)NCCc2ccccn2)cc1	.	1%	-1%	-13%	-2%	.	-15%	1%
CC(=O)N(C(C)=O)S(=O)(=O)c1ccc(N=NN2CCOCC2)cc1	-4.1%	0%	?	-9%	6%	2%	?	14%
COc1ccc(/C=N/NC(=O)CSCC(=O)Nc2ccccc2)cc1	.	0%	0%	18%	-3%	.	.	.
CC1CCC/C(=N\NC(=S)Nc2ccccc2)C1 (centres undefined)	14µM*	33%[activator]	13%	-4%	7%	-7%	?	?
CCS(=O)(=O)c1ccc(-c2cccc(NC(=O)COc3ccccc3)c2)nn1	.	-16%	4%	26%	-2%	.	.	.
COc1cccc(C2CC(c3ccc(NS(C)(=O)=O)cc3)=NN2C(=O)c2ccccc2)c1OC (centres undefined)	.	-16%	1%	-24%	.	.	?	?
CC(C)c1nn2c(=O)cc(COC(=O)c3ccc(NC(=O)C4CCCCC4)cc3)nc2s1	1.1%	-19%	.	.	.	-4%	.	?

This is a random part of the collection. About 4.5% of those tested had a hit in this group.
